Screening data deposited in PubChem BioAssay by several laboratories.
PABP FP inh = PABP-poly(A) binding inhibition; P11940; PABP-poly(A) RNA binding, fluorescence polarization; inhibition, % at 35 µM; 1% of 290,000 active; AID 2014;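 active = 50% or more with normal probe brightness, or confirmed in later tests; inconclusive = above 50% with abnormal brightness, or retests that disagree; inactive = below 50% or failed in later tests; about a fifth of its hits are not listed in these tables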;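 note: calls also rest on retests at 20 µM and on dose response follow-up; controls were probe without protein and protein plus probe with vehicle; some compounds called inactive have numbers as strong as hits; many hits fall short of the cut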
MT1-MMP act inh = MT1-MMP (human) activation inhibition; P50281; HT1080 RFP-PRO-GFP cells, GFP/RFP ratio fluorescence, overnight; percent of plate control window, DMSO zero; GFP/RFP ratio change, % at 20 µM; 0.061% of 360,000 active;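 active = GFP/RFP ratio change of at least 30% with cell ATP level not reduced by more than half and red fluorescence within 50% of control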; note: strong numbers were not always called active
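Assay system: HT1080 cells carrying an RFP-PRO-GFP reporter | Dosing: Single dose of 20 µM compound, 1% DMSO final | Incubation: Cells overnight before dosing, compound overnight, 37 °C, 5% CO2 | Evaluation: GFP/RFP fluorescence ratio | Control set: DMSO and RFP-L50D-GFP cell wells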
eIF4H FP inh = inhibitors of RNA binding by human eIF4H. Q15056. eIF4H fluorescence polarization binding assay. inhibition, % at 35 µM. 0.94% of 290,000 active. AID 2012;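 active = 50% or more with normal probe brightness, or confirmed in later tests; inconclusive = above 50% with abnormal brightness, or retests that disagree; inactive = below 50% or failed in later tests; about a fifth of its hits are not listed in these tables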;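 note: calls also rest on retests at 20 µM and on dose response follow-up; 0% = protein and probe with vehicle and 100% = probe without protein; strong numbers were not always called active; many hits fall short of the cut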
Yeast UUG start = alters start codon recognition fidelity in yeast; S. cerevisiae UUG-firefly luciferase reporter, luminescence/redox ratio; 0.13% of 350,000 active; AID 602363; activity score, % at 18.7 µM;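 active = replicate mean at a twofold rise or more, about +100% in these data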;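 note: firefly luciferase made from a UUG start codon reports start codon fidelity; reporter light over untreated wells divided by growth signal over untreated wells; some hits fall short of that in this replicate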
Rce1 inhib = yeast Ras-converting enzyme inhibition; yeast membranes, quenched prenylated peptide cleavage fluorescence; 0.27% of 290,000 active; calls only;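 active = fall in fluorescence gain of 50% or more versus controls, with final raw signal at or below 3038400; inconclusive = same 50% fall but final raw signal above 3038400; inactive = fall in fluorescence gain under 50%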;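 note: plate controls were neutral control wells for no effect and wells lacking membranes for full effect; tested at 10 µM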
Target sequence (Q03530 whole entry, looked up): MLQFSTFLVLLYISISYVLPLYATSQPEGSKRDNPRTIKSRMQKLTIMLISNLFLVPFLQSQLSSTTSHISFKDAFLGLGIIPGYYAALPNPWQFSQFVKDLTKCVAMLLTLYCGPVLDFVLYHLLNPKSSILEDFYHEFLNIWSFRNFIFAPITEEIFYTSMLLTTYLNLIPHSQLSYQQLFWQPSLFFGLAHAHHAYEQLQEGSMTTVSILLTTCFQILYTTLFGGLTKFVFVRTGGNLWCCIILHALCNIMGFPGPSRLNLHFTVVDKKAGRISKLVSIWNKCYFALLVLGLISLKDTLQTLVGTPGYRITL
HIV Env fusion = blocks HIV Env-driven cell-cell fusion. AID 651610. 1.1% of 360,000 active. inhibition, % at 12.3 µM. HeLa-JRFL Env/CEM21 cell fusion, luciferase;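 active = mean replicate inhibition score of at least 50 and every replicate individually at or above 50; inconclusive = only one of the two criteria met; inactive = mean below 50 and not all replicates reaching 50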;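 note: 0% = plate neutral controls and 100% = maraviroc near 300 nM; one replicate is shown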
CSC inhib = blocks cancer stem cells; cancer stem cell-like cells viability, luminescence; inhibition, % at 7.5 µM; 1.1% of 300,000 active; AID 2717;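 active = mean at 75% or more and at least half the replicates too; inconclusive = mean and replicates disagree; tested in HMLE shEcad cells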;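 note: 0% = median of negative and 100% = median of positive control wells; the first replicate is given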
eIF4H FP inh retest = also measured in eIF4H FP inh; calls as there; inhibition, %; compound at 20 µM; confirmation average;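 mean of two retest wells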
PABP FP inh retest = further read-out of PABP FP inh, marked with its call; inhibition, %; compound at 20 µM; confirmation repeats;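 mean of two retest wells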
MT1-MMP act inh RFP = second read-out of MT1-MMP act inh, no call of its own (marks repeat the call); RFP signal change, %; measured here: RFP expression control read;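 0 = vehicle wells; hits needed this value within 50% of zero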
* = called active by the depositor; i = inactive; ? = inconclusive; · = not tested or not shown; + = active, no number; & = joins results of further samples. This is a subset; the hit share may differ from the screen's.

SMILES	PABP FP inh	MT1-MMP act inh	MT1-MMP act inh RFP	eIF4H FP inh	Yeast UUG start	Rce1 inhib	HIV Env fusion	CSC inhib	others
Cc1c(C(=O)NCc2ccc(F)cc2)oc2ccc(S(=O)(=O)N3CCOCC3)cc12	3	-3	-6	-6	1	i	16	-20
CC(C)(C)c1ccc2oc(=O)cc(-c3cccc(-c4ccc(C(F)(F)F)cc4)c3)c2c1	·	0	-4	·	-18	·	?	·
Cc1cc(N)n2nc(C(F)(F)F)nc2n1	-1	-4	5	7	-17	i	9	19
COC(=O)C1CSC(C(=O)OC)N1C(=O)Nc1c(C)cccc1C (stereo not drawn)	-6	-3	2	-4	-19	i	4	-11
O=C1CCN(CCc2ccccc2)CCN1[C@H](COc1ccccc1)c1ccccc1	-9	1	-4	-8	-5	i	-12	3
COc1cc2c3nnc(-c4ccccc4)c-3cn(Cc3ccc(F)cc3)c2cc1OC	-3	-42	2	4	·	i	-47	7
Cc1ccc2c(c1)C(=O)C(=O)N2Cc1ccc(F)cc1	·	-3	1	·	-25	·	7	17
O=C(COC(=O)CNC(=O)c1ccco1)Nc1ccc(Cl)cn1	-1	2	5	-2	·	i	·	-2
O=C1CCCc2ccccc2N1Cc1ccccc1	-3	-1	1	-6	·	i	-4	-10
CN(Cc1ccccc1)S(=O)(=O)c1ccc(Cl)c(C(=O)OCC(N)=O)c1	16	-2	1	19	4	i	10	-15
CN(C)S(=O)(=O)c1ccc(N2CCCC2)c(C(=O)Nc2cccc(F)c2)c1	-2	-2	-1	-2	-8	i	33	-17
CC(C)N(C(=O)C(=O)c1cccn1-c1ccccc1C#N)C(C)C	-8	1	0	5	-20	i	22	1
CC1(C)CC(=O)C=C(NNC(=O)C2CCCCC2)C1	-13	-1	3	-4	-16	i	-26	-1
Oc1ccccc1C1SC(c2ccccc2O)SC(c2ccccc2O)S1 (stereo not drawn)	·	8	2	·	7	·	-1	·
COc1ccccc1N1CCN(c2nccc(C)n2)CC1	0	0	6	2	-12	i	-4	-8
C#CCOCCOCCOCCNc1nc(N2CCN(C(=O)Cn3cc(CC(C)O)nn3)CC2)nc(N2CCN(C(=O)[C@H](CCCCN)n3cc(CCCC)nn3)CC2)n1 (stereo partly drawn)	·	2	4	·	45	·	-50	·
NC(=O)CSc1nnc2ccc(-c3ccco3)nn12	15	-7	2	7	·	i	1	-20
N#C/C(=C\c1cccs1)C(=O)NCc1ccccc1	-9	6	8	-4	·	i	11	-2
COc1ccc(CC(=O)NNC(=O)COc2ccc(F)cc2)cc1S(=O)(=O)N1CCOCC1	·	0	5	·	-7	·	-5	21
CCN=C1SC(CC(=O)Nc2ccccc2)C(=O)N1CC (stereo not drawn)	1	-2&7	2&10	-9	-12&-15	i	19&-83	-7
O=C1COc2ccc(S(=O)(=O)Nc3ccc(F)cc3)cc2N1	8	-3	0	-6	-5	i	-2	·
O=C(Nc1nnc(Cc2ccccc2)s1)c1cnccn1	-13	3	6	3	·	i	-6	3
CS(=O)(=O)c1cccc(NC(=O)C2CC2)c1	30	-3	3	0	·	·	2	·
CC(=O)OC(C(=O)N1CCN(c2ccccc2F)CC1)c1ccccc1 (stereo not drawn)	-5	-3	3	-6	-7	·	-5	-4
COc1ccc(CCOC(=O)c2ccc(N)c([N+](=O)[O-])c2)cc1	1	3	-10	-3	0	i	-6	12
O=C(O)CCSc1nnc(-c2ccc3c(c2)OCO3)o1	2	-1	-1	-1	-39	i	69*	2
O=C1c2ccccc2C(=O)N1CCCCN(C(=O)c1cc([N+](=O)[O-])ccc1Cl)c1ccc(Cl)cc1	5	-5	-1	-4	·	i	10	9
Cc1cc(=O)[nH]c2c(C)cc(S(=O)(=O)NCc3ccccc3)cc12	-6	5	5	-5	-13	i	10	-28
O=C(O)CSCC(=O)N1CCN(c2ncnc3scc(-c4ccccc4)c23)CC1	2	0	0	-4	-14	i	6	-8
O=C(c1ccc(Cl)cc1)C1C2C(=O)N(c3ccccc3)C(=O)C2C2CCCN21 (stereo not drawn)	?	-2	7	?	-16	i	·	·
Oc1ccc2oc3c(c2c1)CCCC3	-3	0	-4	3	·	i	·	-2
OCCC1CN(C2CSCCSC2)CCN1Cc1ccccc1 (stereo not drawn)	-10	-1	-2	-10	-18	i	-7	0
O=c1nc(-c2ccccc2)cn[nH]1	12	1	-2	1	-7	i	-81	4
CSc1nnc(-c2ccc(C(F)(F)F)nc2C)o1	-1	0	-1	1	-16	i	9	-1
O=C1CC2(CCN(C(=O)COc3ccccc3)CC2)Oc2ccccc21	·	-3	-1	·	-39	i	4	-1
CC(=O)Nc1ccc(S(=O)(=O)NC2CCCCCC2)cc1	5	3	-3	0	4	i	-9	-10
C=CCNC(=O)c1cc2c(=O)n3cc(C)ccc3nc2nc1NCC1CCCO1 (stereo not drawn)	6	·	·	-2	·	+	·	-17
COc1ccc(C(C)=O)cc1CC1(C)C(=O)Nc2ccc(-c3ccccc3OC)cc21 (stereo not drawn)	·	-6	-4	·	-4	·	70*	·
COc1ccc(CC(NC(C)=O)C(=O)NC2CCN(c3nc(C)cc(C)c3C#N)CC2)c(OC)c1 (stereo not drawn)	10	-5	-6	5	-4	i	5	0
COc1cc(OC)cc(C(=O)NNC(=S)NC2CC2)c1	-9	4	3	-8	·	i	20	-3
COC(=O)c1cc(NC(=O)c2cc(C)oc2C)cc(C(=O)OC)c1	0	-1	1	26	11	i	-82	-8
O=C(NCCCN1CCN(CCCNC(=O)c2cccc(Cl)c2)CC1)c1cccc(Cl)c1	6	1	2	0	-21	i	20	8
COCCCNC(CC(=O)Nc1cc(C)cc(C)c1)C(=O)O (stereo not drawn)	·	4	6	·	·	i	-17	-6
O=[N+]([O-])c1cccnc1NCCc1c[nH]c2ccccc12	1	7	1	-8	-7	i	-53	3
Cc1cc(C)nc(SCC(=O)c2ccc3c(c2)OCCO3)n1	-1	7	1	-10	0	i	·	5
CC(C)c1ccccc1OCC(=O)NCC(c1cccs1)N1CCOCC1 (stereo not drawn)	4	-7	-18	5	-13	i	·	-13
O=S(=O)(Nc1nc2ccccc2nc1NCC1CCCO1)c1ccc(F)cc1 (stereo not drawn)	-9	-1	0	10	0	i	0	-3
COc1ccccc1CNC(=O)C(CCSC)NS(=O)(=O)c1ccc2c(c1)oc(=O)n2C (stereo not drawn)	4	-1	6	-2	·	i	·	-6
O=C(O)COc1ccccc1/C=N/NC(=O)Cc1csc(Nc2cccc(C(F)(F)F)c2)n1	-6	2	3	-2	-17	i	9	-2
COc1ccccc1NC(=O)COc1ccccc1C(=O)Nc1ccccc1	0	1	-5	-1	-6	i	-3	1
O=C(CCCN1CCN(c2ccccc2)CC1)c1ccc(F)cc1	·	0	-1	·	-30	·	21	·
O=C(NCc1ccccc1F)C1CCN(C(=O)Nc2ccc(F)cc2)CC1	-8	0	1	-6	·	i	-9	2
CCNC(=O)/C(C#N)=C/c1c(N2CCN(Cc3ccc4c(c3)OCO4)CC2)nc2c(C)cccn2c1=O	4	-2	1	3	3	i	9	-2
CC1(C)CC(=O)C=C(Nc2ccccc2F)C1	-3	1	0	-16	-17	i	·	-17
Fc1c(F)c(F)c(/C=N/NC(=S)Nc2cccnc2)c(F)c1F	-8	-1	-4	-1	·	i	5	12
O=C(NCc1cccnc1)c1ccc2c(c1)N(Cc1ccccc1)CCS2	3	-3	-8	-2	-21	i	-26	-7
CCO[C@@H]1OC(C(N)=O)=C[C@H](c2ccc(Br)cc2)[C@H]1CCCO	5	1	2	-1	7	i	-7	5
NC(=O)CSc1nnc(-c2cccc(S(=O)(=O)N3CCCCC3)c2)o1	10	2	2	-3	·	i	3	-15
CC1(C)CC(CC(=O)O)(c2ccccc2)CCO1 (stereo not drawn)	2	2	-5	1	-3	i	·	-8
Clc1ccccc1COc1ccc(/C=N/n2cnnc2)cc1	-2	-1	-8	-6	-18	i	-13	·

A stretch from the list above:
SMILES	PABP FP inh	MT1-MMP act inh	MT1-MMP act inh RFP	eIF4H FP inh	Yeast UUG start	Rce1 inhib	HIV Env fusion	CSC inhib	others
COC(=O)c1cc(NC(=O)c2cc(C)oc2C)cc(C(=O)OC)c1	0	-1	1	26	11	i	-82	-8
O=C(NCCCN1CCN(CCCNC(=O)c2cccc(Cl)c2)CC1)c1cccc(Cl)c1	6	1	2	0	-21	i	20	8

The listing continues:
SMILES	PABP FP inh	MT1-MMP act inh	MT1-MMP act inh RFP	eIF4H FP inh	Yeast UUG start	Rce1 inhib	HIV Env fusion	CSC inhib	others
COc1cccc(NC(=O)Cn2c(=O)oc3ccccc32)c1	-11	-1	-1	2	·	i	·	·
COc1ccc(/C(C)=N/NC(=O)c2ccc(N(C)C)cc2)cc1	3	0	4	5	-4	i	·	-2
O=C(CSc1ccsc1[N+](=O)[O-])N1CCN(c2ccccc2)CC1	-1	-4	-8	50	·	i	·	14	eIF4H FP inh retest=-7;PABP FP inh retest=-6
O=C(CCCCCNS(=O)(=O)c1ccc(Br)cc1)NCCN1CCOCC1	7	7	4	4	-4	·	·	-1
CCC(=O)N/C(N)=N/c1nc(C)c2cc(OC)ccc2n1	9	-14	-5	8	-9	i	-100	15
COCCNC(=O)CSc1nc2ccccc2c(=O)n1CCC(=O)N1CCN(c2ccccc2)CC1	1	1	1	-6	·	i	-9	-1
CC(C)Cn1c(=O)c2ccccc2n2c(CCC(=O)NCc3ccccn3)nnc12	4	1	3	-15	-10	i	1	-7
NC(=O)c1ccc[n+](Cc2ccccc2)c1	-2	1	3	-4	-9	i	·	7
Cc1cn([C@H]2C[C@H](O)[C@@H](CNC=O)O2)c(=O)[nH]c1=O	·	5	6	·	-7	·	-74	·
COc1ccccc1OCC(=O)NNC(=S)NC(=O)c1ccco1	10	7	1	7	-20	i	·	6
CC(=O)c1ccc(NC(=O)c2ccc(COc3ccccc3[N+](=O)[O-])o2)cc1	-3	4	-7	-5	-7	i	7	11
O=C(Nc1nnc(-c2cccs2)o1)c1ccco1	1	-1	6	2	-21	i	4	-1
COc1ccc(/C(C)=N/NC(=O)c2nnn(-c3nonc3N)c2CN(C)c2ccccc2)cc1	-11	-1	1	-4	-10	i	4	-4
O=C(CCc1nnc2ccc(NCc3ccccc3Cl)nn12)NC1CCCC1	-8	2	-1	-4	-18	i	1	-1
C=CC[C@H](CC(=O)OC(C)(C)C)C(=O)OC[C@H]1CCCN1C(=O)[C@H](CC=C)CC(=O)N(CCO)Cc1ccccc1	·	-2	-7	·	15	·	-19	4
COC(=O)c1cc(C(=O)OC)cc(N2C(=O)CC(NNC(=O)c3ccccc3Cl)C2=O)c1 (stereo not drawn)	-7	-3	2	7	·	i	·	6
CCc1ccc2[nH]c(=O)c(C(c3nnnn3CCOC)N3CCN(c4ccccc4F)CC3)cc2c1 (stereo not drawn)	50	-2	1	0	4	i	·	8
O=C(CCC(=O)Nc1nnc(C2CCCCC2)s1)NCc1cccs1	-7	-14	-3	-1	-1	i	-10	17
O=C(CN(Cc1ccc2c(c1)OCO2)C(=O)c1cnsn1)NC1CCCC1	8	3	1	-2	-22	i	·	-19
CC(C)c1cc(C(=O)N/N=C/c2ccco2)n[nH]1	40	-2	3	-1	-22	i	-4	-4
CC(Oc1cccc(Cl)c1)C(=O)Nc1cc(S(=O)(=O)N2CCCCC2)ccc1N1CCOCC1 (stereo not drawn)	·	-9	-10	·	·	i	7	8
